PINK1 modulator: changes PINK1 expression; PINK1 immunofluorescence, high-content cytometry, 24 h; Potency, µM (highest dose often 76.6 µM), for inactives: at the top dose activation (PINK1 increase), actives largely listed as activators; actives 0.2% (n = 410,000); AID 624263; active = well fitted activation curve with a large enough effect; inconclusive = small, poorly fitted or top-dose-only effect; inactive = flat fitted curve, though single readings scatter; cell line not stated here;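 note: potency is the fitted concentration of half-maximal effect; % of control where 0% means no effect; nearly all actives have a fitted effect of over 65% in size; a mitochondrial uncoupler was the plate control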
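PINK1 protein, normally rapidly degraded, was detected by immunofluorescence after 24 hour compound treatment of a stable cell line. Titration data (5 concentrations) came from laser-scanning cytometry, with CCCP-treated wells as controls.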
gsp agonist: activates gsp, the McCune-Albright syndrome mutation. gsp mutant cells, cAMP HTRF, 30 min; control for the full effect not named in the record. Potency, µM (titrated, usually from 76.9 µM), without a hit: top-dose activation (cAMP increase), most hits filed as activators. actives 0.13% (n = 340,000). AID 624287; active = well fitted activation curve with a large enough effect; inconclusive = small, poorly fitted or top-dose-only effect, or another doubt; inactive = no such curve, though single readings can be large or run the other way; cell line not stated here;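 note: phosphodiesterase inhibitor Ro 20-1724 added with compounds to block cAMP breakdown; potency is the fitted concentration of half-maximal effect; nearly all actives have a fitted effect of over 60% in size; about a fifth of the inactives were tested at one dose only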
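Cells in DMEM/10% FBS with G418 were pretreated with compounds in DMSO plus […] (300 uM stock) for 30 min at 37C. cAMP was measured by HTRF (cAMP-d2 plus anti-cAMP antibody-K) after 30 min at room temperature.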
ClpP mod: qHTS Assay for Activators of ClpP; actives 1.9% (n = 340,000); purified B. subtilis ClpP, FRET peptide cleavage, 20 min; Potency, µM (series often up to 57.5 µM), for inactives: top-dose activity change, negative = active; AID 651965, 2013; active = well fitted falling curve with a large enough effect; inconclusive = small, poorly fitted or top-dose-only effect; inactive = no such curve, though single readings can be large or run the other way; note: potency is the fitted concentration of half-maximal effect; the source files actives as falling curves though it sought activators and does not explain the sign; nearly all actives have a fitted effect of over 65% in size; many hits overshoot -100%
Target sequence (P80244 whole entry, looked up): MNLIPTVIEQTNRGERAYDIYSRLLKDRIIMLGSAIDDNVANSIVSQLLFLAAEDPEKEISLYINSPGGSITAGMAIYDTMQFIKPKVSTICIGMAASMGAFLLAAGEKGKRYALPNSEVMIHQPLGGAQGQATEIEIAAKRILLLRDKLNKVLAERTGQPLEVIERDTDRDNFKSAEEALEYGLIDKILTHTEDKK
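Purified B. subtilis ClpP, 10 microg/mL final in Tris/HCl pH8 with KCl, BSA, glycerol and Tween-20, cleaved an Abz/nitrotyrosine-quenched decapeptide. Fluorescence (ex 320, em 430) was read at 0 and 20 min at room temperature. Delta was normalized to 5.8 microM ADEP and DMSO/no-enzyme controls.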
D2 agonist: human D2 receptor agonism in beta-arrestin assay | P14416 | DiscoveRx PathHunter D2 beta-arrestin, luminescence, 90 min; 100% = 57 uM dopamine signal | activation, % (no concentration beside the values) | actives 0.084% (n = 360,000) | AID 624465; in the data active = activation above about 40%; inconclusive = about 15% to 40%; inactive = below about 15%; note: compound concentration not given in the record; the text of the record calls up to 30% inactive
Target sequence (P14416 whole entry, looked up): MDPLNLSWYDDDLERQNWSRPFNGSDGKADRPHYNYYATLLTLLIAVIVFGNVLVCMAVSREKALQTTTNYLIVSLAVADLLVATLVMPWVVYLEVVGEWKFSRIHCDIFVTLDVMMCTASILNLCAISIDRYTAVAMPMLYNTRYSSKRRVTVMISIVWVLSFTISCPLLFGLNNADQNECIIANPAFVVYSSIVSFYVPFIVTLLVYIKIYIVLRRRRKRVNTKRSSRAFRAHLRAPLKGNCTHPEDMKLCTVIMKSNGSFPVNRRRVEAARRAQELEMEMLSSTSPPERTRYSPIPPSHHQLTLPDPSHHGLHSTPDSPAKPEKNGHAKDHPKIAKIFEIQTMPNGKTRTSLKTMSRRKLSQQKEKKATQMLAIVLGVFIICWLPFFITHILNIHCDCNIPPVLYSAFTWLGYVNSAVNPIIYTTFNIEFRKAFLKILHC
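Agonist mode: compounds alone added to overnight-plated D2 PathHunter cells for 90 min at 37 C, with 57 uM final dopamine (EC100) defining full response. Beta-arrestin recruitment detected by chemiluminescent reagent, read after 1 h at ambient temperature.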
Sfp inh: inhibitors of Bacillus subtilis Sfp phosphopantetheinyl transferase | Q9F4F7 | Biochemical Sfp PPTase activity, qHTS | actives 3.5% (n = 310,000) | Potency, µM, without a hit: max response, negative = inhibition, actives largely listed as inhibitors; active = well fitted inhibition curve with a large enough effect; inconclusive = small, poorly fitted or top-dose-only effect, or another doubt; inactive = no such curve, though single readings can be large or run the other way;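 note: the enzyme is Sfp with the accession as filed and its product quenches rhodamine fluorescence; potency is the fitted concentration of half-maximal effect; 0% = enzyme reaction without inhibitor and -100% = no enzyme wells; top concentration of the series not given in the record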
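Fluorescence-quenching assay with 15 nM Sfp, 5 uM rhodamine-CoA and 12.5 uM BHQ-2-labelled ybbR peptide in pH 7.6 Hepes/MgCl2 buffer. Enzyme was pre-incubated with compound for 15 min at room temperature. Rate was taken from the 30-min fluorescence change (525/598 nm).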
gsp antag: gsp mutant antagonism; gsp-mutant cells, cAMP HTRF, 30 min; control for the full effect not named in the record; Potency, µM (series often up to 76.9 µM), for the others: at the highest dose activity change, negative = inhibition, hits mostly inhibitors; actives 0.4% (n = 340,000); active = falling curve of any shape with a large fitted effect; inconclusive = falling curve, mostly with a smaller effect; inactive = flat or rising curve; cell line not stated here;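 note: intracellular cAMP measured with PDE inhibitor Ro 20-1724 present during compound exposure; potency is the fitted concentration of half-maximal effect; % is set by controls: 0 for no effect and ±100 for the full control effect; nearly all actives have a fitted effect of over 65% in size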
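HTRF cAMP measurement after 30 min RT detection following 30 min, 37C compound treatment alongside […] (added as 300 uM solution) in G418-selected cells seeded at 2000/well and grown 16–24 h.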
Menin MLL FP FL: displaces fluorescein MLL peptide from human menin. Fluorescence polarization, fluorescein-MLL peptide displacement from menin. FP activity change, % at 61.4 µM. 290,000 tested, under 10 active. AID 1766; inconclusive = falling polarisation curve, or a change in total fluorescence; inactive = total fluorescence flat and polarisation flat or rising; no compound was filed as active; the % refers to the polarisation; negative = inhibition;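 note: % of control where 0% means no effect; inhibitors lower the polarisation; unlabelled MLL peptide was the positive control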
Active calls of the source: *; ? = inconclusive; . = not tested or not shown; [ ] = another dose, or the depositor's remark. Compounds were not picked by outcome; 5.1% or so of the library scored in one or more.

[1] O=C(COC(=O)c1cc(-c2cccnc2)nc2ccccc12)Nc1ccc(F)cc1F
[2] O=c1c(-c2ccco2)[n+]([O-])c2ccccc2n1OCc1ccccc1
[3] CC(C)c1csc(CN2CCCC(CCC(=O)NCc3ccccc3F)C2)n1 (stereo unspecified)
[4] CCCCCCCCNc1ncnc2[nH]ncc12
[5] COc1ccc(-c2cc(C(=O)N3CCN(c4ncccn4)CC3)c3ccccc3n2)cc1
[6] CCCCNC(=O)C1CCCN(S(=O)(=O)c2ccc(-n3cnnn3)cc2)C1 (stereo unspecified)
[7] Cc1cccc(Oc2c(C=O)c3ccccc3n2C)c1
[8] CN(c1ccc(C(=O)O)cc1)S(=O)(=O)c1ccc(Cl)cc1

assay / entry	1	2	3	4	5	6	7	8
PINK1 modulator	3.3%	1.3%	4.6%	2.0%	-1.5%	0.9%	1.1%	2.0%
gsp agonist	-11%	24%	-19%	10%	?	-36%[inhibitor]	2%	-2%
ClpP mod	-12%	2.7%	0.7%	.	4.2%	-1.9%	-3.7%	-1.8%
D2 agonist	0.9	-5.0	-3.8	4.6	?	-1.8	-3.8	2.5
Sfp inh	0%	?	16%	.	.	15%	7%	20%
gsp antag	-17%	-23%	5%	1%	-16%	-2%	-27%	-13%
Menin MLL FP FL	5.1	?	0.3	.	.	2.4	-1.4	2.1

[9] COc1cccc(NC(=O)CSc2nn3c(=O)c(C)nnc3s2)c1
[10] CCOc1cc(-c2cc(-c3ccc(C)cc3)nc(N)c2C#N)ccc1O
[11] CCCCOC(=O)Nc1cccc(C(=O)OCC)c1
[12] Cc1nn(Cc2ccccc2)c(=O)n1N(C)c1ncc(C(F)(F)F)cc1Cl
[13] COc1ccc(OC)c(NC(=O)C2CCCCC2C(=O)O)c1 (stereo unspecified)
[14] CC(NC(=O)c1cc2c(s1)CCCC2)C(C)(C)C (stereo unspecified)
[15] Cc1ccc(NS(=O)(=O)c2ccc(OCC(=O)NCc3ccco3)cc2)cc1
[16] O=C(Cc1ccccc1[N+](=O)[O-])OCC(=O)N1CCN(c2ccccc2)CC1

assay / entry	9	10	11	12	13	14	15	16
PINK1 modulator	2.9%	1.6%[38.3 µM]	2.9%	-0.6%	4.0%	-0.5%[38.3 µM]	-3.3%	1.3%
gsp agonist	29%	-29%	-22%	-2%	?	-20%	-28%	-6%[15.4 µM]
ClpP mod	0.1%	-23%	-4.2%	0.3%	-0.8%	-1.3%	-2.5%	.
D2 agonist	0.7	-4.1	-0.6	-1.6	-6.4	-1.8	4.9	-3.5
Sfp inh	18%	?	5%	10%	3%	10%	10%	.
gsp antag	2%	6%	-8%	-16%	-21%	0%	-4%	0%
Menin MLL FP FL	-2.6	3.8	4.7	9.3	1.5	-1.0	3.4	.

[17] CC1CN2C(c3ccc(Cl)cc3)=CSC2=N1 (stereo unspecified)
[18] CCOC(=O)C1CCCN(C(=O)c2cc3cc(Br)ccc3oc2=O)C1 (stereo unspecified)
[19] COCC(=O)NNC(=O)c1ccccc1OC
[20] COc1ccc(CCN2CC(C(=O)NCc3cccc4[nH]ccc34)CCC2=O)cc1 (stereo unspecified)
[21] Cc1cc(C)nc(Nc2ncc(O)n2-c2ccccc2)n1
[22] Cc1ccc(NC(=O)c2cc(S(=O)(=O)N3CCOCC3)cn2C)c(C)c1
[23] CCOC(=O)N1CCN(C(=O)COc2ccc([N+](=O)[O-])cc2)CC1
[24] CCOC(=O)c1c(C)[nH]c(C(=O)OCC(=O)NCc2ccco2)c1C

assay / entry	17	18	19	20	21	22	23	24
PINK1 modulator	-0.8%	-0.6%	-0.6%	3.1%	-7.4%[38.3 µM]	0.6%	-1.0%	5.3%
gsp agonist	-10%	12%	1%[15.4 µM]	7%[15.4 µM]	0%	0%	6%[15.4 µM]	21%
ClpP mod	-1.7%	.	.	-6.1%	0.2%	-3.8%	.	2.2%
D2 agonist	-5.4	-1.0	-3.9	-2.5	1.0	-4.1	1.9	-0.1
Sfp inh	-9%	-1%	6%	13%	?	-12%	23%	.
gsp antag	5%	-2%	7%	-1%	9%	9%	-7%	.
Menin MLL FP FL	0.3	-1.7	3.2	0.0	5.5	-0.2	-0.7	.

For reference, three of the compounds above.
[17] CC1CN2C(c3ccc(Cl)cc3)=CSC2=N1 (stereo unspecified)
[18] CCOC(=O)C1CCCN(C(=O)c2cc3cc(Br)ccc3oc2=O)C1 (stereo unspecified)
[19] COCC(=O)NNC(=O)c1ccccc1OC

assay / entry	17	18	19
PINK1 modulator	-0.8%	-0.6%	-0.6%
gsp agonist	-10%	12%	1%[15.4 µM]
ClpP mod	-1.7%	.	.
D2 agonist	-5.4	-1.0	-3.9
Sfp inh	-9%	-1%	6%
gsp antag	5%	-2%	7%
Menin MLL FP FL	0.3	-1.7	3.2

Continuation:
[25] CN1C(=O)C(C)(C)c2cc(S(=O)(=O)NCC3CCC(C(=O)NCc4ccc(F)cc4)CC3)ccc21 (stereo unspecified)
[26] O=C(C1=NN[C@@H]2C(=O)N(c3cccc(C(F)(F)F)c3)C(=O)[C@H]12)C(c1ccccc1)c1ccccc1
[27] CCCCN(C(=O)Nc1ccccc1)C1CCS(=O)(=O)C1 (stereo unspecified)
[28] CCn1cc(CN2CCC(C(=O)Nc3cccc(-c4cccc(F)c4)c3)CC2)cn1
[29] CCOC(=O)C(Cc1ccccc1)NC(=O)CCc1nnc2ccc(N3CCCCC3)nn12 (stereo unspecified)
[30] Cc1ccc(C(=O)NNC(=O)C2CSC3(C)CCC(=O)N23)cc1 (stereo unspecified)
[31] Cc1cc2cc(C(=O)N3CCc4c([nH]c5ccccc45)C3c3ccccn3)ccc2o1 (stereo unspecified)
[32] CCOC(=O)/C(C#N)=C\c1ccc(N2CCN(C)CC2)cc1

assay / entry	25	26	27	28	29	30	31	32
PINK1 modulator	0.2%	2.7%	-1.3%	1.3%	-1.5%	-0.7%	0.8%	-1.2%[38.3 µM]
gsp agonist	11%	16%	-29%	-12%	0%	13%[15.4 µM]	-10%	-34%[inhibitor]
ClpP mod	1.0%	1.7%	0.6%	-0.4%	-0.4%	.	-2.5%	0.5%
D2 agonist	-1.7	-3.4	-7.2	-3.0	2.1	1.6	-1.4	-2.0
Sfp inh	7%	20%	.	-19%	6%	.	-19%	14%
gsp antag	-12%	-5%	5%	10%	?	11%	-7%	-15%
Menin MLL FP FL	.	4.4	.	1.0	.	.	2.3	12

[33] CN1CCCN(C(=O)C2CCCCC2)CC1
[34] CCOc1cccc(NC(=O)C2CC(=O)N(C)C2)c1 (stereo unspecified)
[35] C=CCNc1nc2c(c(=O)[nH]c(=O)n2C)n1Cc1cccc(C)c1
[36] Cc1ccc(S(=O)(=O)CCC(=O)OCC(=O)N2CC(=O)Nc3ccccc32)cc1
[37] O=C(NCc1ccc2c(c1)OCO2)c1ccccn1
[38] O=C(CC12CC3CC(CC(Br)(C3)C1)C2)NC1=NCCS1
[39] COc1ccc(F)cc1S(=O)(=O)n1nnc2ccccc21
[40] CCOc1ccc(OCC)c(NC(=O)C2CCCN(c3nc(C)cc(C)n3)C2)c1 (stereo unspecified)

assay / entry	33	34	35	36	37	38	39	40
PINK1 modulator	-1.1%	-5.2%[38.3 µM]	0.7%	-2.0%	-0.4%	0.9%	-0.8%	-1.6%[38.3 µM]
gsp agonist	8%[15.4 µM]	-32%[inhibitor]	-9%	-18%	-38%[inhibitor]	-4%[15.4 µM]	-15%[15.4 µM]	-1%
ClpP mod	.	0.1%	-0.2%	0.6%	0.8%	0.0%	-2.4%	-9.3%
D2 agonist	-0.8	-1.6	1.4	-4.3	-1.5	4.1	1.0	2.5
Sfp inh	20%	4%	12%	-10%	23%	19%	13%	1%
gsp antag	10%	1%	11%	0%	14%	-5%	-13%	-20%
Menin MLL FP FL	1.3	-2.2	0.3	7.5	-0.6	-0.3	-3.5	-1.2

[41] Cc1ccc(-c2ccc(S(=O)(=O)Nc3cccnc3)cc2)cc1
[42] CCOc1ccc(Nc2nc(Cc3nnc(SCC(=O)c4ccc(C)cc4)o3)cs2)cc1
[43] O=C(CSc1nnnn1C1CCCC1)N1CCOCC1
[44] COc1cccc(-c2nnc(NC(=O)c3cccc(F)c3)o2)c1
[45] CCO[C@@H]1OC(C(=O)N2CCN(Cc3ccc4c(c3)OCO4)CC2)=C[C@H](c2ccc(Br)cc2)[C@H]1CCCO
[46] C[C@@H]1C=C(C(=O)NCc2nc3ccccc3[nH]2)O[C@H](OCCCCO)C1
[47] CC(C)c1c(O)cc(-c2ccncc2)n(-c2ccc(Cl)cc2)c1=O
[48] Nc1nonc1C(=O)NCCNc1ccc([N+](=O)[O-])cc1

assay / entry	41	42	43	44	45	46	47	48
PINK1 modulator	1.6%	13%[38.3 µM]	-2.0%	0.0%	17%	-1.2%	3.5%	3.6%
gsp agonist	-40%[15.4 µM]	0%	11%	-24%	.	1%	-36%[inhibitor]	?
ClpP mod	-9.1%	-0.4%	-3.2%	2.0%	1.1%	-2.9%	-1.9%	-2.0%
D2 agonist	-4.3	0.6	0.3	-0.9	-4.1	-4.1	-4.6	-5.7
Sfp inh	2%	13%	7%	13%	3%	.	10%	14%
gsp antag	-3%	?	-3%	-9%	-10%	0%	-19%	5%
Menin MLL FP FL	.	4.8	-0.3	6.7	-3.5	.	1.7	-1.0

Assay outcomes as filed in PubChem.
